High-throughput results: PubChem, Broad Institute
BJeLR lethal = BJeLR cell viability loss | BJeLR (HRASV12) viability, CellTiter-Glo ATP luminescence, 48 h; reference of the scale not given here | inhibition, % (no concentration beside the values) | 300,000 tested, 0.17% active | AID 1554;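 active = replicate mean above 50%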;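 note: 50 nL library stock added to about 25 µL; numbers are from one replicate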
Numbers without * were called inactive. The list is partial; the hit share may differ from the screen's.

canonical_smiles	BJeLR lethal
Cc1ccc(NCN2C(=O)C3C4CCC(C4)C3C2=O)cc1 (stereo unspecified)	7.7
O=C1C2CCCN2c2ccc(S(=O)(=O)N3CCOCC3)cc2N1Cc1cccc(C(F)(F)F)c1 (stereo unspecified)	3.5
O=C1CS/C(=N/N=C/c2cccs2)N1Cc1ccc(F)cc1	-2.0
CCN1C(=O)[C@@H]2[C@H](C1=O)[C@@H]1CC(C(=O)OC)=C[C@@H](C(=O)OC)C3C1=C(C(=O)C3(CC)CC)[C@@H]2C (stereo partly specified)	9.1
O=c1[nH]c2cc3c(cc2cc1C(c1nnnn1CC1CCCO1)N1CCCCCC1)OCO3 (stereo unspecified)	-1.6
CC1(OC(=O)C2CCCC2)C(=O)C=C2C=C3CCCN3C=C2C1=O (stereo unspecified)	7.6
O=C(NCc1nc2ccccc2[nH]1)C1=C[C@@H](c2ccc3c(c2)OCO3)C[C@@H](OCc2ccc(CO)cc2)O1	12.3
COc1cc(/C(C)=C/c2ccccc2)c2c(c1)oc1ccccc12	-10.2
CC(=O)OC1=C(C#N)Cn2ccc3cccc1c32	-11.5
COCCN1C(=O)N[C@@H](c2ccc(Br)cc2)C(C(=O)OC)=C1C	2.6
O=C(CN1CCSCC1)N/N=C/c1ccc(Cl)cc1	5.8
CCCN1C(=O)/C(=c2\s/c(=C3\C=Cc4ccccc4N3CC)c(=O)n2-c2ccccc2)SC1=S	2.1

Next part
canonical_smiles	BJeLR lethal
CC1Oc2ccccc2C=C1/C=N\NC(=O)c1cccnc1 (stereo unspecified)	2.9
C1=C(c2c[nH]c3ccccc23)CCNC1	-1.2
COC(=O)C1=C[C@@H](C(=O)OC)[C@@H]2C3=C(C(=O)[C@@]2(C)NC(=O)c2ccccc2)[C@H](c2ccccc2)n2c(=O)n(-c4ccccc4)c(=O)n2[C@@H]3C1	-9.3
O=[N+]([O-])c1cc(C=Nc2cccc3c(O)cccc23)ccc1Cl	-7.2
CC(C)(C)OC(=O)NCCCC1=CC2=CC(=O)C(C)(O)C(=O)C2=CO1 (stereo unspecified)	-3.4
CC1(OC(=O)c2ccco2)C(=O)C=C2C=C(c3ccsc3)OC=C2C1=O (stereo unspecified)	-9.9
O=C1[C@H]2[C@H]3[C@H](O)[C@H](O)C/C(=N\OC[C@@H](O)COCc4ccco4)[C@@H]3CC[C@H]2C(=O)N1c1ccc(F)cc1F	-7.8
Fc1ccc2[nH]c3c(N4CCN(C5CCCCC5)CC4)ncnc3c2c1	2.1
CC(=O)OCCCN1C(=O)c2cccc3cc(Br)cc(c23)C1=O	-9.9
Cc1cc(-c2ccccc2)nc(N2CCC(C(=O)NCc3ccccc3Cl)CC2)n1	-3.8
C/C(=N\O)C1CCCCC1	1.9
Cc1c(-c2cc[n+]([O-])cc2)oc2ccc(Br)cc2c1=O	-2.8

Next part
canonical_smiles	BJeLR lethal
O=C(c1ccc(F)cc1)C1CCN(CCn2c(=S)[nH]c3ccccc3c2=O)CC1	9.6
COC(=O)c1cccc(C23CC4(C2)[C@H](CN(Cc2cccnc2)[C@@H]4c2ccccc2)C3c2ccc(C(F)(F)F)cc2)c1 (stereo partly specified)	-9.9
CC(C)N1CC=C2C(C#N)=C(N)C(C#N)(C#N)[C@H](c3ccoc3)[C@H]2C1	0.1
COc1ccc(C2C=C(c3ccc(Br)s3)Nc3ncnn32)cc1OC (stereo unspecified)	-3.3
C/C(=N\Nc1ccc([N+](=O)[O-])cc1[N+](=O)[O-])c1cc2c(ccc3ccccc32)oc1=O	4.8
CCn1c(SCC(=O)NCc2ccco2)nnc1-c1ccncc1	-1.4
CC(=O)c1ccc(NC(=O)C(C)Sc2nnc(C3CCCCC3)o2)cc1 (stereo unspecified)	-9.4
C#CCOCCOCCOCCNc1nc(N2CCN(C(=O)[C@H]([C@@H](C)CC)n3cc([C@@H](N)CO)nn3)CC2)nc(N2CCN(C(=O)[C@H](Cc3cc4ccccc4[nH]3)n3cc([C@@H](N)C(C)CC)nn3)CC2)n1 (stereo partly specified)	3.4
Cc1ccc(S(=O)(=O)CC#CCOC(=O)c2ccc([N+](=O)[O-])cc2)cc1	-3.7
O=C(CN1C(=O)C2CCCN2C(=O)c2ccccc21)Nc1ccccc1-n1cccc1 (stereo unspecified)	-10.7
Cc1conc1NC(c1cccs1)c1ccc2cccnc2c1O (stereo unspecified)	2.1
O=C(N/N=C/c1ccncc1)c1cccc([N+](=O)[O-])c1	4.7

3 structures already listed, ordered by heavy-atom count, descending:
canonical_smiles	BJeLR lethal
CC(=O)c1ccc(NC(=O)C(C)Sc2nnc(C3CCCCC3)o2)cc1 (stereo unspecified)	-9.4
COc1ccc(C2C=C(c3ccc(Br)s3)Nc3ncnn32)cc1OC (stereo unspecified)	-3.3
O=C(N/N=C/c1ccncc1)c1cccc([N+](=O)[O-])c1	4.7

Further compounds.
canonical_smiles	BJeLR lethal
N#CCCN/N=C(/Cc1nc2ccccc2[nH]1)c1ccc(Cl)cc1	2.1
CNC(C)C#Cc1ccc2c(=O)c3c(OC)cccc3oc2c1 (stereo unspecified)	-8.3
CCN1CCN(CCCCSc2ccccc2)CC1	-1.1
O=C1Nc2ccc(Br)cc2/C1=C/c1ccc(C(=O)O)cc1	-0.1
O=C1c2cccc3c2[C@H](CCC3)CN1[C@@H]1CN2CCC1CC2	3.9
COc1ccc(C(OCC2CO2)c2ccc(OC)cc2)cc1 (stereo unspecified)	1.0
Cc1ccc(Cl)cc1Nc1nc(-c2sc(NC(=O)c3ccccc3)nc2C)cs1	3.1
O=C(O)c1cc(-c2ccc(/C=c3\sc4nc5ccc(Br)cc5n4c3=O)o2)ccc1Cl	-4.1
COc1ccc(O[C@H]2C=C[C@@H](c3ccccc3)O[C@@H]2CO/N=C/C[C@@H]2C=C[C@H](OC(C)=O)[C@@H](COC(C)=O)O2)cc1	-3.9
C#CCOCCOCCOCCNc1nc(N2CCN(C(=O)[C@H](CCCCN)n3cc(C(N)CO)nn3)CC2)nc(N2CCN(C(=O)[C@H](CCC(=O)O)n3cc(C(N)CC(C)C)nn3)CC2)n1 (stereo partly specified)	7.9
CCCCCc1nc2c(c3c1CCCC3)CCCC2	-3.7
C=CCN1C(=O)/C(=c2\sc3nc(=O)c(Cc4ccc(OC)c(OC)c4)nn3c2=O)c2ccccc21	6.1

(further entries)
canonical_smiles	BJeLR lethal
CCCNC(=O)OC[C@H]1O[C@H](CCO/N=C/C[C@@H]2C=C[C@H](OC(C)=O)[C@@H](COC(C)=O)O2)C=C[C@@H]1Oc1ccc(OC)cc1	1.1
CCCCCCNC(=O)N[C@@H](Cc1ccc(O)cc1)C(=O)NCCC[C@H]1CN2C(=NC[C@H]2C)N1CC1CCC1	17.6
O=C(O)c1sc2cc(Cl)ccc2c1Cl	-0.7
CC(C)(C)n1nc2c(c1NC(=O)Cc1cccs1)CSC2	-4.0
CCCCC[C@H](O)/C=C/[C@H]1[C@H](O)CC(=O)[C@@H]1CCCCCCC(=O)O	-4.9
N#CC1(C#N)C2=C(CCCC2)NC(c2ccccc2)C1(C#N)C#N (stereo unspecified)	3.8
CC(=O)c1cccc(NC(=O)Nc2cc3sccc3n2C)c1	0.9
Cc1ccc(C(C)C)c(OCC(=O)NN=C(CCl)CCl)c1	7.6
O=C(Nc1ccc(Cl)c(Cl)c1)Nc1cc(C(=O)NC2CC2)ccc1Cl	-9.5
CCN(CC)CCN1C(=O)C(O)=C(C(=O)c2ccc(C)o2)C1c1ccccn1 (stereo unspecified)	8.9
O=C(c1cccnc1)N1CCN(c2ccccc2Cl)CC1	-0.4
Cc1ccc(-n2c(=O)c3sccc3n(Cc3cc(=O)n4ccccc4n3)c2=O)cc1F	7.9

Going on with the list:
canonical_smiles	BJeLR lethal
O=[N+]([O-])c1cc(/C=N/Nc2nc3ccccc3[nH]2)c(O)cc1O	10.2
O=C1CSC(=S)N1N1C(=O)c2cccc([N+](=O)[O-])c2C1=O	-0.8
CCOc1ccc(C2C(C#N)=C(N)SC(N)=C2C#N)cc1OC	-2.1
COc1ccc(/C=N/n2cnc3c([nH]c4ccc(Br)cc43)c2=O)cc1CN1CCOCC1	6.8
CS(=O)(=O)c1nc(-c2ccco2)cc(C(F)(F)F)n1	14.2
CCOc1ccc(/C=C2\N=C(c3cccs3)OC2=O)cc1OC	4.5
CCSc1nc(N)c2c3c(sc2n1)CN(C)CC3	7.5
Cc1ccc2nc3nc(NCC4CCCO4)c(C(=O)NC4CCCCC4)cc3c(=O)n2c1 (stereo unspecified)	1.8
COC/C=C/C1=CC2=CC(=O)C(C)(OC(=O)c3cnc4ccccc4n3)C(=O)C2=CN1c1cccc(C#N)c1 (stereo unspecified)	-4.1
CC(C)c1ccc(/C=C/C(=O)NC2=NCCS2)cc1	2.4
CC1OC(O[C@H]2CC[C@]3(C)C4C=C[C@]56OC[C@@]7(CC[C@@H](C)[C@H](C)C75)[C@H](O)C[C@@]6(C)[C@]4(C)CC[C@H]3C2(C)C)C(OC2OC(CO)C(O)C(O)C2OC2OCC(O)C(O)C2O)C(O)C1O (stereo partly specified)	-0.9
O=C(c1cccs1)[C@@H]1[C@@H]2C(=O)N(Cc3ccc4c(c3)OCO4)C(=O)[C@@H]2C2c3ccccc3C=CN21 (stereo partly specified)	0.1

Next part:
canonical_smiles	BJeLR lethal
CC1=NN(c2ccccc2)C(=O)/C1=C/c1cc2cc(C)ccc2nc1N1CCCCC1	4.8
C/C(=N\NC(=O)Cc1c(C)[nH][nH]c1=O)c1ccc2ccccc2c1	-13.5
COc1ccccc1/C=N/N1C(=O)C(CC(=O)Nc2ccc([N+](=O)[O-])cc2OC)SC1=Nc1cccc(C)c1C (stereo unspecified)	46.1
COC(C[C@H]1O[C@@H]1C(=O)COCc1ccccc1)OC	-1.7
Cc1ccc(NC(=O)N(Cc2ccco2)Cc2cc3cc(C)cc(C)c3nc2Cl)cc1	-6.6
COC(=O)/C=C1/S/C(=N/N=C/c2ccc(N(C)C)cc2)NC1=O	-4.2
Cc1ccc2c(c1)C1C=CCC1C(C(=O)O)N2 (stereo unspecified)	1.4
CCCC1CC(=O)OC1(C)C(=O)CSc1n[nH]c(-c2ccccc2)n1 (stereo unspecified)	-0.4
CCOc1ccccc1Nc1nc(-c2sc(NC(=O)c3ccccc3)nc2C)cs1	14.7
OC(CN1CCNCC1)Cn1ccc2ccccc21 (stereo unspecified)	-3.9
O=C(O)C1CCC(N2C(=O)c3c(Cl)c(Cl)c(Cl)c(Cl)c3C2=O)CC1 (stereo unspecified)	-1.1
CCC/C=C(\CCC)C(NC(=O)CCc1ccccc1)c1ccc(C(F)(F)F)cc1 (stereo unspecified)	-3.3

Later entries.
canonical_smiles	BJeLR lethal
CC1(OC(=O)CCc2ccccc2)C(=O)C=C2C=C(C3CC3)OC=C2C1=O (stereo unspecified)	6.4
COc1ccc2c(c1)C(=O)[C@H](O)[C@@H](c1ccc(OC)c(Br)c1)O2	7.1
O=C1Nc2ccccc2S/C1=C\C(=O)N1CCCC1	-1.5
Cc1ccc(S(=O)(=O)NC(=O)c2ccc(-c3ccc(-c4ccccc4)cc3)o2)c(C)c1	-9.0
CCOC(=O)C1Nc2c(F)cc(C)cc2C2C=CCC12 (stereo unspecified)	3.5
CCO[C@@H]1OC(C(=O)N2CCN(Cc3ccc4c(c3)OCO4)CC2)=C[C@H](c2ccc3c(c2)OCO3)[C@H]1CCCO	-2.9
O=C(O)C1C2C=CC(O2)C1C(=O)NCCCn1ccnc1 (stereo unspecified)	4.6
O=C(c1ccco1)N1CCN(c2ncnc3c2[nH]c2ccc(Cl)cc23)CC1	2.4
CC(C)(C)C#CC(CCc1ccccc1)OS(N)(=O)=O (stereo unspecified)	7.3
NC(=O)c1cc([N+](=O)[O-])ccc1NCCN1C(=O)c2ccccc2C1=O	-5.5
CC(C)Nc1ccc(Cl)cc1[N+](=O)[O-]	-5.6
CCCCc1ccc(-c2nc(NC(=O)C3C4CCC(O4)C3C(=O)O)sc2C)cc1 (stereo unspecified)	0.3

2 entries from above, with each value named:
CC(C)(C)C#CC(CCc1ccccc1)OS(N)(=O)=O (stereo unspecified)
  BJeLR lethal: 7.3

CCO[C@@H]1OC(C(=O)N2CCN(Cc3ccc4c(c3)OCO4)CC2)=C[C@H](c2ccc3c(c2)OCO3)[C@H]1CCCO
  BJeLR lethal: -2.9

(next part)
canonical_smiles	BJeLR lethal
O=C1[C@H](CC[C@H](O)c2ccc(F)cc2)[C@@H](c2ccc(O)cc2)N1c1ccc(F)cc1	13.9
Cc1c(Cc2ccccc2)sc(N)c1C(N)=O	-1.6
Cc1cc(-c2cc(C(=O)Nc3ccccc3)on2)nc(NC2CCCC2)n1	0.4
Cc1ccc(N=c2c([N+](=O)[O-])nn(-c3ccc4c(c3)OCCO4)n2O)c(Cl)c1	-2.3
Cc1nc2ccccc2c(=O)n1/N=C/c1ccc([N+](=O)[O-])o1	-1.9
CCN(CC)CCn1c(/N=C/c2ccc(OC)c(OC)c2)nc2ccccc21	-4.8
Cc1cccc(N2CSC3=C(C#N)C(c4ccc(C)o4)CC(=O)N3C2)c1 (stereo unspecified)	7.0
CC(=O)Oc1c(C)cc(O)c2ccccc12	-8.2
N[C@@H](Cc1c[nH]c2ccccc12)C(=O)O	-6.9
OCCCc1nc2n(n1)C(c1cccs1)C=C(c1ccc(Br)cc1)N2 (stereo unspecified)	10.3
CCCOc1ccc2oc(=O)c3c(c2c1)CCCN3C(=O)CN1CCN(C(=O)c2ccco2)CC1	-1.1
CC1CCN(C(=O)C2CCN(CCCc3ccccc3)CC2)CC1	6.2
CC(/C=C1\SC(=S)N(CCCC(=O)Nc2ccc(C(=O)O)c(O)c2)C1=O)=C\c1ccccc1	-1.7
CC1=CC(=Nc2c(C)n(C)n(-c3ccccc3)c2=O)C=CC1=O	1.6
CNC(=O)c1cc2c(ccc3ccccc32)oc1=N	-1.4
